TRPV1 PAM: potentiators of human vanilloid receptor 1 (TRPV1). Q8NER1. TRPV1-expressing cells, Fluo-8 calcium influx, capsaicin EC20 potentiation; host cell line not named in the record; control for the full effect not named in the record. potentiation, % at 8.33 µM. actives 0.02% (n = 320,000). AID 540277; active means potentiation above 80%; inconclusive means 30% to 80%; inactive means below 30%; further: 0% is about no effect
Target sequence (Q8NER1 whole entry, looked up): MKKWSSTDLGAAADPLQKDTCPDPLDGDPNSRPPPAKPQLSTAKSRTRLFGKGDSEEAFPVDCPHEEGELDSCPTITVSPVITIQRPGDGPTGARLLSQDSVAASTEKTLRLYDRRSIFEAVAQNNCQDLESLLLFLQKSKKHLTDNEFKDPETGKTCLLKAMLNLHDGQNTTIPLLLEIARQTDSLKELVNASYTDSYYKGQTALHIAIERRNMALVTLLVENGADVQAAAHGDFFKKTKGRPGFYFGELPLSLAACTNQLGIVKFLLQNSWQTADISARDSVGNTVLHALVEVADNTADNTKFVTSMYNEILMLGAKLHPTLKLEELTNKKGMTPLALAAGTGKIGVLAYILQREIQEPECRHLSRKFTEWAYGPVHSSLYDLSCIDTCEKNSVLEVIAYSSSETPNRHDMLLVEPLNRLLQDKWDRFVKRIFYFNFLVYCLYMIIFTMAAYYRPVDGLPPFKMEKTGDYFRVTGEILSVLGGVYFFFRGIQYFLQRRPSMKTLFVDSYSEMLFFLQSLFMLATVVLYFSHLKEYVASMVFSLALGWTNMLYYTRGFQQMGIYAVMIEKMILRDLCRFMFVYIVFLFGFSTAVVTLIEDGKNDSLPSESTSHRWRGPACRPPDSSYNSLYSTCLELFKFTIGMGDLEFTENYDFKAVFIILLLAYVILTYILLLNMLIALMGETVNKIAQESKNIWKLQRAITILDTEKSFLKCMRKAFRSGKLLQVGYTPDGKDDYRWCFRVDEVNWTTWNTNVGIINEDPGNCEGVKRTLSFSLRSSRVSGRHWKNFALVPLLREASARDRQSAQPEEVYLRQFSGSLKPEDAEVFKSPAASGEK
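Cells expressing TRPV1 were dye-loaded with Fluo-8 and read kinetically: 10 s baseline, 3 min after compound (agonist portion), then 2 min after EC20 capsaicin (allosteric enhancer portion). Calcium-bound dye fluorescence at 480/520 nm.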
Sfp PPTase inh: Sfp phosphopantetheinyl transferase inhibition. actives 3.5% (n = 310,000). Biochemical Sfp PPTase activity, qHTS. Q9F4F7. Potency, µM, without a hit: max response, negative = inhibition, hits mostly inhibitors; active means well fitted inhibition curve with a large enough effect; inconclusive means small, poorly fitted or top-dose-only effect, or another doubt; inactive means no such curve, though single readings can be large or run the other way;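 further: the enzyme is Sfp with the accession as filed and its product quenches rhodamine fluorescence; potency means the concentration at half of the fitted maximal effect; 0% = enzyme reaction without inhibitor and -100% = no enzyme wells; top concentration of the series not given in the record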
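After 15 min at room temperature with compound, 15 nM Sfp received 5 uM rhodamine-CoA plus 12.5 uM BHQ-2-ybbR (50 mM Hepes pH 7.6, 10 mM MgCl2). Rate came from the fluorescence difference over 30 min, ex 525/em 598 nm.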
ClpP mod: qHTS Assay for Activators of ClpP | ATP-dependent Clp protease proteolytic subunit (Bacillus subtilis (strain 168)), P80244 | purified B. subtilis ClpP, FRET peptide cleavage, 20 min | Potency, µM (titrated, usually from 57.5 µM), without a hit: top-dose activity change, negative = active | actives 1.9% (n = 340,000); active = well fitted falling curve with a large enough effect; inconclusive = small, poorly fitted or top-dose-only effect; inactive = no such curve, though single readings can be large or run the other way; further: potency means the concentration at half of the fitted maximal effect; the source files actives as falling curves though it sought activators and does not explain the sign; nearly all actives have a fitted effect of over 65% in size; many hits overshoot -100%
Target sequence (P80244 whole entry, looked up): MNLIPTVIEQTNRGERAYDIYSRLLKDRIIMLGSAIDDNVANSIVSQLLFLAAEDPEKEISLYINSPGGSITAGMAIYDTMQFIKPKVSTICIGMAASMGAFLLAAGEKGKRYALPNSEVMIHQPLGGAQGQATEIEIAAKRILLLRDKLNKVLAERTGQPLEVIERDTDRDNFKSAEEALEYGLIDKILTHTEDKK
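FRET quenching reversal measured ClpP activation: 10 microg/mL B. subtilis ClpP at pH 8 with the FRET-FV decapeptide, read at 430 nm after 320 nm excitation. The 20-min minus 0-min signal was scaled between DMSO/no-enzyme wells and ADEP (5.8 microM final).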
gsp antagonist: antagonizes gsp, the McCune-Albright syndrome mutation; gsp-mutant cells, cAMP HTRF, 30 min; control for the full effect not named in the record; Potency, µM (top dose mostly 76.9 µM), for the others: at the highest dose activity change, negative = inhibition, actives largely listed as inhibitors; actives 0.4% (n = 340,000); AID 624288; active = falling curve of any shape with a large fitted effect; inconclusive = falling curve, mostly with a smaller effect; inactive = flat or rising curve; cell line not stated here;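 further: intracellular cAMP measured with PDE inhibitor Ro 20-1724 present during compound exposure; potency means the concentration at half of the fitted maximal effect; on the % scale 0 is the no-effect control and ±100 the full control effect; nearly all actives have a fitted effect of over 65% in size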
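Cells in G418 medium, seeded 16-24 h, 37C; buffer exchange to DPBS + 1 mM CaCl2, 0.5 mM MgCl2, 0.05% BSA; cpds in DMSO + […] (300 uM stock), 30 min 37C; HTRF cAMP detection.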
Menin MLL FP FL: displaces fluorescein MLL peptide from human menin | Fluorescence polarization, fluorescein-MLL peptide displacement from menin | FP activity change, % at 61.4 µM | 290,000 tested, under 10 active; inconclusive = falling polarisation curve, or a change in total fluorescence; inactive = total fluorescence flat and polarisation flat or rising; no compound was filed as active; the % refers to the polarisation; negative = inhibition;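 further: % of control where 0% means no effect; inhibitors lower the polarisation; unlabelled MLL peptide was the positive control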
gsp ag: gsp mutant agonism. gsp mutant cells, cAMP HTRF, 30 min; control for the full effect not named in the record. Potency, µM (highest dose often 76.9 µM), for the others: at the highest dose activation (cAMP increase), most hits filed as activators. actives 0.13% (n = 340,000). AID 624287; active = well fitted activation curve with a large enough effect; inconclusive = small, poorly fitted or top-dose-only effect, or another doubt; inactive = no such curve, though single readings can be large or run the other way; cell line not stated here;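 further: phosphodiesterase inhibitor Ro 20-1724 added with compounds to block cAMP breakdown; potency means the concentration at half of the fitted maximal effect; nearly all actives have a fitted effect of over 60% in size; about a fifth of the inactives were tested at one dose only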
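Cells in DMEM/10% FBS with G418 were pretreated with compounds in DMSO plus […] (300 uM stock) for 30 min at 37C. cAMP was measured by HTRF (cAMP-d2 plus anti-cAMP antibody-K) after 30 min at room temperature.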
D2 potentiator: positive allosteric modulators of human D2 dopamine receptor; potentiation, % (concentration not given with the values); P14416; DiscoveRx D2 beta-arrestin cells, luminescence, 90 min; 100% = 57 uM dopamine signal; actives 0.23% (n = 360,000); active = potentiation of 50% or more; inconclusive = 30% to 50%; inactive = 30% or less;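 further: compound concentration not given in the record; tested on top of an EC20 dose of dopamine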
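D2 cells co-treated with compound plus 50 nM dopamine (EC20) for 90 min at 37 deg C to detect potentiation. Beta-arrestin recruitment was read as enzyme-fragment luminescence after 1 h at ambient temperature. Full response was set by 57 uM dopamine.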
* hit, by the source's call; [ ] = dose if it differs, or a comment. Hits appear at their usual frequency; about 5.1% have a hit in one of these screens.

Screening O=C(Nc1ccccc1C(=O)N1CCCCC1)c1ccc(Cl)cc1Cl returned TRPV1 PAM 4, Sfp PPTase inh 8%, gsp antagonist -40%, gsp ag 11%[15.4 µM] and D2 potentiator -5.
For COc1ccc(C(=O)NNC(=O)C(=O)/C=C(\O)c2ccc(C)cc2)cc1 the results were TRPV1 PAM -18, Sfp PPTase inh -2%, gsp antagonist 2%, Menin MLL FP FL inconclusive, gsp ag -2%[15.4 µM] and D2 potentiator -17.
Screening Nn1c(SCC(=O)NCc2ccc3c(c2)OCO3)nnc1C(F)(F)F returned ClpP mod 0.6%, gsp antagonist -1%, gsp ag -15% and D2 potentiator -2.
Screening O=C(NCC(=O)N1CCN(C(=O)c2ccco2)CC1)c1ccccc1 returned TRPV1 PAM 5, Sfp PPTase inh 14%, ClpP mod -1.4%, gsp antagonist 5%, gsp ag 14%[15.4 µM] and D2 potentiator -4.
For CC(NC(=O)NC(=O)c1cccc(Cl)c1)c1ccccc1 (stereo unspecified) the results were TRPV1 PAM 5, Sfp PPTase inh 19%, ClpP mod -2.3%, gsp antagonist -18%, gsp ag inconclusive and D2 potentiator -26.
For Clc1ccc(-c2ccccc2)cn1 the results were TRPV1 PAM -9, ClpP mod -0.9%, gsp antagonist inconclusive, gsp ag inconclusive and D2 potentiator -4.
Cc1cc(C)cc(NC(=O)c2ccccc2CC[N+](=O)[O-])c1 was read as TRPV1 PAM 10, Sfp PPTase inh 14%, ClpP mod 0.2%, gsp antagonist -1%[15.4 µM], Menin MLL FP FL 2.1, gsp ag 5% and D2 potentiator -14.
`O=c1[nH]c(CSc2ncnc3sccc23)nc2cc(C(F)(F)F)ccc12` gave TRPV1 PAM 8, Sfp PPTase inh -22%, gsp antagonist -4%, Menin MLL FP FL 3.6, gsp ag 8%[15.4 µM] and D2 potentiator -2.
`COCc1ccc(CN2CCc3c([nH]c4ccccc34)C2C(C)(C)C)o1` (stereo unspecified) gave TRPV1 PAM 2, Sfp PPTase inh -2%, ClpP mod -21%, gsp antagonist -5%, Menin MLL FP FL -2.4, gsp ag -40%[inhibitor] and D2 potentiator -26.
`O=c1cc[nH]c2c1ccc1c(=O)cc[nH]c12` gave TRPV1 PAM 5, Sfp PPTase inh 3%, gsp antagonist 2%, Menin MLL FP FL -6.8, gsp ag 25% and D2 potentiator -1.
Screening O=C(CSCc1ccccc1F)NCc1ccccc1 returned TRPV1 PAM -25, Sfp PPTase inh 0%, gsp antagonist 14%, Menin MLL FP FL 3.6, gsp ag -3%[15.4 µM] and D2 potentiator -3.
Screening CCOc1ncccc1C(=O)Nc1ccc(S(=O)(=O)Nc2cc(C)nc(C)n2)cc1 returned ClpP mod -1.0%, gsp antagonist 5%, gsp ag inconclusive and D2 potentiator 3.
`COc1ccc(C)cc1-n1c(SCC(=O)Nc2cc(C)on2)nc2sc(C)c(C)c2c1=O` gave TRPV1 PAM -11, Sfp PPTase inh 6%, ClpP mod -4.6%, gsp antagonist 0%, Menin MLL FP FL 13, gsp ag 20% and D2 potentiator -13.
Screening CC1CCCCC1NC(=O)C1CCN(c2c3c(nc4ncnn24)CCC3)CC1 (stereo unspecified) returned TRPV1 PAM -7, Sfp PPTase inh 8%, gsp antagonist 6%, Menin MLL FP FL -8.0, gsp ag -3%[15.4 µM] and D2 potentiator 0.
For CC(/C=N/N1CCN(c2ccccn2)CC1)=C\c1ccccc1 the results were TRPV1 PAM 20, Sfp PPTase inh 4%, ClpP mod -0.3%, gsp antagonist -14%, Menin MLL FP FL 7.0, gsp ag -57%[inhibitor] and D2 potentiator 11.
`Cc1ccc(S(=O)(=O)NCC(=O)OCC(=O)NCc2ccco2)cc1` gave ClpP mod 1.1%, gsp antagonist -8%, gsp ag 0%[15.4 µM] and D2 potentiator 0.
Screening O=C(O)Cc1ccc(NC(=O)c2ccc(Cl)c(Cl)c2)cc1 returned TRPV1 PAM 7, Sfp PPTase inh 24%, gsp antagonist -11%, Menin MLL FP FL -1.2, gsp ag 6% and D2 potentiator -6.
Screening Cc1ccc(C)c(CSc2nc3ccncc3n2CC(=O)Nc2ccc(C)c(C)c2)c1 returned TRPV1 PAM 6, Sfp PPTase inh -7% and Menin MLL FP FL 0.9.
Screening COCCNC(=O)C1CCCN(S(=O)(=O)c2c(C)noc2/C=C/c2cccs2)C1 (stereo unspecified) returned TRPV1 PAM -7, Sfp PPTase inh -1%, ClpP mod -1.5%, gsp antagonist -12%, Menin MLL FP FL 1.5, gsp ag -1% and D2 potentiator -15.
Screening Cc1cc(C)cc(NC(=O)c2cccc(C(=O)Nc3cc(C)cc(C)c3)n2)c1 returned TRPV1 PAM 5, Sfp PPTase inh 56µM*, ClpP mod -3.1%, gsp antagonist -3%, Menin MLL FP FL -4.8, gsp ag 17%[15.4 µM] and D2 potentiator -5.
For CCOP(=O)(OCC)C(Nc1ccccc1)c1ccccc1C(F)(F)F (stereo unspecified) the results were TRPV1 PAM -9, Sfp PPTase inh 19%, ClpP mod -0.4%, gsp antagonist -2%, Menin MLL FP FL 2.8, gsp ag 16% and D2 potentiator -1.
For O=C(N/N=C/c1ccc([N+](=O)[O-])cc1)c1ccc(COc2ccccc2-c2ccccc2)cc1 the results were TRPV1 PAM 1, Sfp PPTase inh 13%, gsp antagonist inconclusive, Menin MLL FP FL 1.0, gsp ag 3%[15.4 µM] and D2 potentiator 3.
`O=C(Cc1ccc(S(=O)(=O)N2CCCCC2)s1)Nc1ccc(F)c(F)c1` gave TRPV1 PAM 0, Sfp PPTase inh 11%, ClpP mod 1.8%, gsp antagonist inconclusive, gsp ag -5% and D2 potentiator -20.
Screening O=C(NC1CCCC1)c1cc(-c2cccc(Cl)c2)on1 returned TRPV1 PAM -4, Sfp PPTase inh -17%, gsp antagonist -4%, Menin MLL FP FL 4.6, gsp ag -5%[15.4 µM] and D2 potentiator -3.
Screening CN(C)C(CNC(=O)c1c(F)cccc1Cl)c1ccco1 (stereo unspecified) returned TRPV1 PAM -28, Sfp PPTase inh 15%, gsp antagonist -26%, Menin MLL FP FL -8.0, gsp ag -1%[15.4 µM] and D2 potentiator -4.
For C[C@H]1CCCCO[C@H](CN(C)Cc2ccc(C(=O)O)cc2)[C@@H](C)CN([C@@H](C)CO)C(=O)c2cc(NS(=O)(=O)c3cn(C)cn3)ccc2O1 the results were ClpP mod -2.7%, gsp ag -18% and D2 potentiator -7.
O=C(CN1CCC(C(O)(c2ccccc2)c2ccccc2)CC1)Nc1cc(Cl)ccc1Cl was read as TRPV1 PAM -12, Sfp PPTase inh 8%, ClpP mod -0.5%, gsp antagonist 2%, Menin MLL FP FL 1.4, gsp ag 7% and D2 potentiator -8.
Screening CCCCCN(C(=O)CCC(=O)OCC(=O)NCc1ccc(OC)cc1)c1c(N)n(CCCC)c(=O)[nH]c1=O returned TRPV1 PAM 2, Sfp PPTase inh 18%, ClpP mod -0.8%, gsp antagonist -5%, gsp ag 0% and D2 potentiator -3.
`CCN(CC)C(=O)c1sc2nc(Cc3ccccc3)[nH]c(=O)c2c1C` gave TRPV1 PAM inconclusive, Sfp PPTase inh -2%, gsp antagonist -6%, Menin MLL FP FL 2.5, gsp ag -2%[15.4 µM] and D2 potentiator -2.
Screening COC(=O)C1CCN(C(=O)c2cc(OC)c(OC)c(OC)c2)CC1 returned TRPV1 PAM 6, Sfp PPTase inh 4%, ClpP mod 0.5%, gsp antagonist 3%, Menin MLL FP FL -0.5, gsp ag 17% and D2 potentiator -7.
Screening Cn1c(C(=O)NCCc2ccccc2)cc(=O)n(C)c1=O returned TRPV1 PAM 1, Sfp PPTase inh -2%, ClpP mod inconclusive, gsp antagonist -1%, Menin MLL FP FL 2.6, gsp ag -6%[15.4 µM] and D2 potentiator -16.
Screening COc1cccc(NC(=S)N(CCC(C)C)C(C)c2ccncc2)c1 (stereo unspecified) returned TRPV1 PAM inconclusive, Sfp PPTase inh -21%, ClpP mod 0.6%, gsp antagonist 5%, Menin MLL FP FL 1.3, gsp ag 2% and D2 potentiator 4.
`Cc1sc2nc(CN3CCCC3)nc(N3CCN(S(=O)(=O)c4cccs4)CC3)c2c1C` gave TRPV1 PAM 9, Sfp PPTase inh -1%, ClpP mod -12%, gsp antagonist -6%, Menin MLL FP FL 4.3, gsp ag -2% and D2 potentiator -8.
For O=C(/C=C/c1c(F)cccc1Cl)Nc1nc2ccccc2[nH]1 the results were TRPV1 PAM 8, Sfp PPTase inh 5%, ClpP mod -0.8%, gsp antagonist 1%, Menin MLL FP FL 9.5, gsp ag -18% and D2 potentiator -1.
Cc1c(C(=O)N2CCN(C3CCS(=O)(=O)C3)CC2)oc2ccc(Cl)cc12 (stereo unspecified) was read as TRPV1 PAM -6, ClpP mod 0.8%, gsp antagonist 9%, gsp ag 23% and D2 potentiator 9.
For C=CCNC(=S)NNc1ncnc2sc3c(c12)CC(C)(C)OC3 the results were TRPV1 PAM 3, Sfp PPTase inh inconclusive, ClpP mod 0.0%, gsp antagonist 3%, Menin MLL FP FL 1.4, gsp ag 20% and D2 potentiator 19.
`Cc1cc(C)c(C)c(OCC(=O)N2CCCCCC2)c1` gave TRPV1 PAM -3, Sfp PPTase inh 10%, ClpP mod -0.4%, gsp antagonist -16%, Menin MLL FP FL -0.9, gsp ag -29% and D2 potentiator -11.
For CCOC(=O)C1=C(N)Oc2cc(C)n(C)c(=O)c2C1c1ccncc1 (stereo unspecified) the results were TRPV1 PAM 19, Sfp PPTase inh 6%, ClpP mod -5.3%, gsp antagonist 5%, Menin MLL FP FL 2.3, gsp ag 1% and D2 potentiator 2.
For CN(CC(=O)NC1CC(C)(C)NC(C)(C)C1)S(=O)(=O)c1ccc(Br)cc1 the results were TRPV1 PAM 0, Sfp PPTase inh 10%, ClpP mod -0.9%, gsp antagonist 6%, Menin MLL FP FL -1.2, gsp ag 14%[15.4 µM] and D2 potentiator -12.
